ClpP mod – qHTS Assay for Activators of ClpP | purified B. subtilis ClpP, FRET peptide cleavage, 20 min | Potency, µM (series often up to 57.5 µM), for the others: top-dose activity change, negative = active | 1.9% of 340,000 active; active = well fitted falling curve with a large enough effect; inconclusive = small, poorly fitted or top-dose-only effect; inactive = no such curve, though single readings can be large or run the other way; further: the source files actives as falling curves though it sought activators and does not explain the sign; nearly all actives have a fitted effect of over 65% in size; many hits overshoot -100%
Target sequence (P80244 whole entry, looked up): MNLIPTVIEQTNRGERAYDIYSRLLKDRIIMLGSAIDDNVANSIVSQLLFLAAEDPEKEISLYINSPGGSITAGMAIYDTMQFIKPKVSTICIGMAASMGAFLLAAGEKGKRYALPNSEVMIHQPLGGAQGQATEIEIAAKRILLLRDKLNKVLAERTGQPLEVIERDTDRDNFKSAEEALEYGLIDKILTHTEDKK
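ClpP 10 microg/mL final, pH 8 Tris/KCl buffer with BSA, glycerol, Tween-20; compound pinned in; FRET-FV substrate; RT 20 min; Ex320/Em430; ΔFRET vs ADEP 5.8 microM, DMSO, no enzyme.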
* hit, by the source's call; u = inconclusive. Potency means the concentration at half of the fitted maximal effect. An excerpt (hit frequency here may not be typical).

SMILES	ClpP mod
CCOC(=O)c1cc(-c2ccccc2)n(-c2cccc(C(=O)NC(C)(C)C)c2)c1C	-2.6%
CCc1ccc(CNC(=O)CN(c2ccc(C)cc2)S(=O)(=O)N(C)C)cc1	-0.6%
COc1cccc(CNC(=O)CSC2=Nc3ccccc3N=C(c3ccc(F)cc3)C2)c1	-3.9%
CCCC(=O)Nc1nnc(SCc2cc(=O)c3ccc(C)cc3[nH]2)s1	-12%
CCc1ccccc1N1CC(c2nc3ccccc3n2CC(C)C)CC1=O (stereo unspecified)	-2.1%
O=C(Nc1ccc2nccnc2c1)N1CCCCCC1	-24%
Cc1ccc(C(=O)C(OC(=O)CNC(=O)COc2ccccc2C)c2ccccc2)cc1 (stereo unspecified)	0.6%
COc1ccc(-c2csc3nc(-c4ccc(F)cc4)oc(=O)c23)cc1	-4.7%
CCc1ccc(C2CC(=O)c3c([nH]c(C(=O)OCCOc4ccccc4)c3C)C2)cc1 (stereo unspecified)	-3.6%
COc1cccc(N2CCN(C(=O)c3cc4cc5cc(C)ccc5nc4s3)CC2)c1	-0.9%
COc1ccc(N2CCN(S(=O)(=O)CCNC(=O)Cc3ccc(Cl)cc3)CC2)cc1	-3.0%
O=C(NCCc1c[nH]c2ccccc12)Nc1ccccc1C(F)(F)F	-3.6%
COC(=O)c1sc2cccc(F)c2c1S(=O)(=O)N1CCN(c2ccc(F)cc2)CC1	-0.8%
CCOc1ccccc1Nc1nnc(-c2cc3cc(OC)ccc3oc2=O)s1	2.0%
CCOc1cc(Br)c(C2C(C(=O)OC)=C(C)NC3=C2C(=O)c2ccccc23)cc1OCC (stereo unspecified)	-3.4%
Cc1cc(C)cc(NC(=O)c2cc(S(=O)(=O)N3CCCCC3)c[nH]2)c1	u
Cc1nc(N2CCCC2)c2c(C(=O)Nc3cccc(Cl)c3C)c(C)oc2n1	-1.9%
CCCn1cnc2cc(NC(=O)c3cc(OC)c(OC)c(OC)c3)ccc21	1.8%
CCOC(=O)c1c(C)[nH]c(C)c1S(=O)(=O)N1CCC(C(=O)N2CCN(c3cc(C)ccc3C)CC2)CC1	-0.3%
O=C(CSc1nc(=O)[nH]c2c1CCCC2)Nc1ccc(Cl)c(Cl)c1	-8.2%
Cc1ccc(Cn2c(=O)n(Cc3ccccc3)c(=O)c3c(C)c(C)sc32)cc1	0.5%
O=C(COc1ccccc1)Nc1ccc2nc(SCC(=O)N3CCOCC3)sc2c1	-1.8%
Cc1cc(S(=O)(=O)NCCc2csc(-c3cccc(F)c3)n2)ccc1F	u
Cc1cc(S(=O)(=O)C(CNC(=O)c2ccc(OC(C)C)cc2)c2cccs2)ccc1F (stereo unspecified)	-8.9%
COc1ccc(C(=O)NCC(c2cccnc2)N2CCc3ccccc3C2)cc1OC (stereo unspecified)	0.9%
Cc1ccc(C(=O)COC(=O)C(Cc2c[nH]c3ccccc23)NC(=O)c2ccc(Br)cc2)cc1 (stereo unspecified)	3.5%
COc1ccc(CCC(=O)NCCc2csc(-c3cccc(C)c3)n2)cc1	-3.7%
COc1cc(-c2nnc(SCC(=O)Oc3ccccc3Cl)o2)cc(OC)c1OC	0.2%
COc1ccc(-c2nc3scc(CCNS(=O)(=O)c4ccccc4F)n3n2)cc1	-0.4%
CCN(Cc1ccccc1)S(=O)(=O)c1ccc(F)c(C(=O)Nc2cc(C)ccc2OC)c1	-6.3%
CCOC(=O)c1ccc(N2C(=O)c3n[nH]c(-c4ccco4)c3C2c2ccc(C)cc2)cc1 (stereo unspecified)	-12%
COc1cccc(C2C(C(=O)Nc3ccccc3)=C(C)Nc3nnnn32)c1OC (stereo unspecified)	1.0%
Cc1ccc(C2=CC(c3c(F)cccc3Cl)n3ncnc3N2)cc1C (stereo unspecified)	4.2%
COc1ccc(C(=O)N=c2sc3cc(Cl)ccc3n2C)cc1	-2.6%
COc1ccc(CC(=O)NCCS(=O)(=O)N2CCN(c3ccccc3F)CC2)cc1OC	0.1%
COc1cc(O)ccc1-c1nc2ccc(Br)cn2c1Nc1ccccc1C	-14%
CCN1c2ccccc2-c2nc(SCC(=O)NCc3ccccc3)ncc2S1(=O)=O	4.4%
Cc1ccc(NC(=O)N2CCN(c3nnc(C)c4c(C)n(-c5ccc(Cl)cc5)nc34)CC2)c(C)c1	-2.9%
Cc1ccccc1NC(=O)CSc1c(C(C)C)cnc2c1c(=O)n(C)c(=O)n2C	-7.8%
CC(C)Oc1ccc(CNC(=O)c2cnc3sc(N4CCCC4)nn3c2=O)cc1	-15%
CCOc1cccc2cc(-c3nc4sc(C(=O)Nc5ccc(C)cc5)c(C)c4c(=O)[nH]3)c(=O)oc12	0.2%
CCOc1ccc(N2CC(NC(=O)C(=O)c3c[nH]c4ccccc34)CC2=O)cc1 (stereo unspecified)	-1.3%
Nc1nnc(SCC(=O)Nc2cccc(F)c2)s1	-1.0%
COCCNC(=O)c1c(NC(=O)c2cc(=O)c3cc(Cl)ccc3o2)sc2c1CCCC2	-1.4%
CCc1ccc(NC(=O)C(CC)n2nnc(C(=O)OC)c2C(=O)OC)cc1 (stereo unspecified)	-1.5%
O=C(NCCc1ccccc1)C(=O)NCC(c1cccs1)S(=O)(=O)c1cccs1 (stereo unspecified)	-0.1%
Cc1ccc(NC(=O)C2CCN(S(=O)(=O)c3ccc4c(c3)CCCC(=O)N4)CC2)c(Cl)c1	0.0%
Cc1cc(Br)ccc1NC(=O)c1cc2c(s1)-c1ccccc1SC2	14µM*
CCCn1c(=O)c2sccc2n2c(CCCC(=O)N3CCN(c4ccccc4)CC3)nnc12	-3.2%
Cc1ccccc1C(=O)Nc1ccc(C(=O)OCc2cc(=O)n3c4c(sc3n2)CCCC4)cc1	u
Cc1ccc(C(=O)Nc2cccc(OCc3cc(=O)n4c5c(sc4n3)CCCC5)c2)cc1	-11%
CCC1CN(S(=O)(=O)c2cc(-c3cc(C)no3)ccc2C)c2cc(Cl)ccc2O1 (stereo unspecified)	-0.5%
COc1cccc(NS(=O)(=O)c2cc(-c3cnc(C4CC4)o3)ccc2C)c1	-3.6%
CCCc1noc(-c2ccc(NCc3ccc(C)cc3)c([N+](=O)[O-])c2)n1	1.9%
CCOc1ccccc1NC(=O)c1c2c(nc3ccccc13)C(=O)N(C1CCCCC1)C2	-0.1%
CCc1nnc2c3ccccc3nc(N3CCN(c4ccc(C)cc4C)CC3)n12	-2.6%
COc1ccc(OC)c(CNC(=O)c2ccc(Sc3ccc(C)cc3)c(N)c2)c1	4.5%
CC(C)c1ccc(NC(=O)c2cnc3sc(N4CCCC4)nn3c2=O)cc1	0.7%
Cc1ccc(Cl)cc1NC(=O)N1CCc2cc(S(=O)(=O)N3CCC(C)CC3)ccc21	5.2%
CCOC(=O)c1ccc(NC(=O)CSc2nc(-c3ccc(F)cc3)cc(C(F)(F)F)c2C#N)cc1	23%

A section from further up, for reference:
SMILES	ClpP mod
COc1ccc(OC)c(CNC(=O)c2ccc(Sc3ccc(C)cc3)c(N)c2)c1	4.5%
CC(C)c1ccc(NC(=O)c2cnc3sc(N4CCCC4)nn3c2=O)cc1	0.7%
Cc1ccc(Cl)cc1NC(=O)N1CCc2cc(S(=O)(=O)N3CCC(C)CC3)ccc21	5.2%
CCOC(=O)c1ccc(NC(=O)CSc2nc(-c3ccc(F)cc3)cc(C(F)(F)F)c2C#N)cc1	23%

The list continues.
SMILES	ClpP mod
COC(=O)c1ccc(CSc2nc3ccncc3n2Cc2ccc(F)cc2)cc1	7.5%
Cc1ccc(C)c(-n2cc(-c3ccccc3)nc2SCC(=O)Nc2ccccc2)c1	0.8%
COc1ccc(-c2nc3c4ccccc4n(CC(=O)N4CCN(c5ccc(F)cc5)CC4)c(=O)n3n2)cc1	2.1%
COc1ccc(Cl)cc1NS(=O)(=O)c1ccc2[nH]c3c(c2c1)CCCC3	-7.3%
CC(=O)N1CCc2cc(CNS(=O)(=O)c3ccc(F)cc3)ccc21	1.0%
Cc1ccc(S(=O)(=O)c2cn(Cc3ccccc3Cl)c3ccc(F)cc3c2=O)cc1	0.9%
CCCN(CCC)C(=O)Cn1c(=O)n(-c2ccc(C)cc2)c(=O)c2ccc(C(=O)NCc3ccccc3Cl)cc21	8.0%
COc1cccc(NC(=O)CC2Nc3cc(C)c(C)cc3NC2=O)c1 (stereo unspecified)	u
COc1cc(C2CC(=O)c3c([nH]c(C(=O)OCc4ccc(C)cc4)c3C)C2)cc(OC)c1OC (stereo unspecified)	-1.2%
Cc1ccc(Cl)cc1N1CCN(C(=O)C2CCN(S(=O)(=O)c3c(C)noc3/C=C/c3ccccc3F)CC2)CC1	-11%
Cc1cccn2c(=O)c(C(=O)N3CCN(c4ccccc4)CC3)cnc12	-7.4%
COc1ccc(C(=O)c2oc3ccccc3c2NC(=O)COc2cccc(C)c2C)cc1	-1.3%
CCOC(=O)c1ccc(NC(=O)CCS(=O)(=O)c2ccc3c(c2)oc(=O)n3C)cc1	0.2%
CCOc1ccc(CN2C(=O)c3ccccc3C2C(=O)NCCc2ccc(OC)c(OC)c2)cc1 (stereo unspecified)	0.3%
CC(NC(=O)CSc1n[nH]c(-c2ccccc2Cl)n1)c1nc2ccccc2[nH]1 (stereo unspecified)	-1.8%
COc1ccc(C(=O)Nc2ccc(-c3nnc4n3CCCCC4)cc2)cc1OC	-3.6%
CC(C)(C)c1ccc(C2Sc3ccccc3NC3=C2C(=O)c2ccccc23)cc1 (stereo unspecified)	-1.4%
CCn1c2ccccc2c2nnc(SCC(=O)O)nc21	0.1%
CCS(=O)(=O)c1nc(S(=O)(=O)c2ccc(C)cc2)c(NC(C)c2ccccc2)s1 (stereo unspecified)	-3.1%
Cc1csc2nc(COC(=O)c3ccc(NC(=O)C(C)C)cc3)cc(=O)n12	-0.8%
COc1ccc2nc3sc(C(=O)N4CCN(c5ccc(F)cc5)CC4)cc3cc2c1	-1.3%
CCOc1ccccc1NC(=O)CSC1=Nc2ccccc2C2=NC(CC(=O)NCc3ccc4c(c3)OCO4)C(=O)N12 (stereo unspecified)	-0.3%
CCOC(=O)c1ccccc1NC(=O)CCc1c(C)nc2ncnn2c1C	-19%
Cc1ccc(-c2nnn3c2nc(NCc2ccc4c(c2)OCO4)c2ccccc23)cc1	u
COc1cc(OC)c2c(c1)C(=O)OC2c1cc(OC)c(OC)cc1C (stereo unspecified)	-0.7%
COc1cccc2c1Oc1ncccc1N(C(=O)CCC(=O)NCCC(C)C)C2	3.9%
Cc1ccc(Sc2ccc(N3CCC(C(=O)Nc4cc(C)cc(C)c4)CC3)nn2)cc1	-8.4%
Cc1ccc(-c2noc(C(C)NS(=O)(=O)c3ccc(C)cc3)n2)cc1 (stereo unspecified)	-1.3%
COc1ccc(NC(=O)c2c(NCc3cccc(F)c3)sc3c2CCCC3)c(OC)c1	-2.1%
O=c1oc2ccc(Cl)cc2cc1-c1nc(-c2cccs2)no1	-6.0%
Cc1ccc(-n2nc(C(=O)N3CCN(c4cccc(C(F)(F)F)c4)CC3)c(=O)n(C)c2=O)cc1	2.5%
Cc1ccc(C)c(N2CCN(S(=O)(=O)c3c(C)nc4sccn4c3=O)CC2)c1	-0.8%
Cc1cccc(NC(=O)COc2cccc3c(=O)n(C)ccc23)c1C	-24%
Cc1ccc(NC(=O)CSc2nc(-c3ccco3)cc(C(F)(F)F)n2)cc1	u
CCc1ccccc1NC(=O)Cn1c(=O)n(-c2ccc(C)cc2)c(=O)c2cc(OC)c(OC)cc21	-9.7%
COc1ccc(C2Nc3ccc(NC(C)=O)cc3C(=O)N2Cc2ccccc2)cc1COc1ccc(NC(C)=O)cc1 (stereo unspecified)	4.3%
Cc1ccc(N(CC(=O)N2CCN(c3ccccc3)CC2)S(=O)(=O)c2c(C)noc2C)cc1	-1.1%
COCCNC(=O)CCn1c(=O)c2cc(OC)c(OC)cc2n(CC(=O)Nc2ccc(Cl)cc2F)c1=O	4.4%
COc1ccc(C2=Nc3ccc(F)cc3NC(c3cccc(C(F)(F)F)c3)=N2)cc1	2.4%
COc1ccc2c(CNCCc3ccco3)c(C(=O)O)n(Cc3ccccc3)c2c1	-9.1%
Cc1oc(-c2cccc(Cl)c2)nc1CSc1nncn2c1cc1occc12	0.1%
COc1cc(NS(=O)(=O)c2ccc(NC(=O)c3ccccc3C(=O)O)cc2)nc(OC)n1	-0.8%
O=C(NCc1ccc(F)cc1)c1c(O)nc2ccccn2c1=O	4.1%
Cc1cc(C)n2nc(-c3ccc(Cl)cc3)nc2n1	-4.6%
Cc1ccc(NC(=O)CN2C(=O)c3cccnc3Sc3ccccc32)c(Br)c1	-3.6%
Cc1ccnc2nc(NC(=O)c3ccccc3Cl)nn12	-6.3%

Among those listed so far, 13 contain an NH in an aromatic ring.
SMILES	ClpP mod
CCCC(=O)Nc1nnc(SCc2cc(=O)c3ccc(C)cc3[nH]2)s1	-12%
CCc1ccc(C2CC(=O)c3c([nH]c(C(=O)OCCOc4ccccc4)c3C)C2)cc1 (stereo unspecified)	-3.6%
O=C(NCCc1c[nH]c2ccccc12)Nc1ccccc1C(F)(F)F	-3.6%
Cc1cc(C)cc(NC(=O)c2cc(S(=O)(=O)N3CCCCC3)c[nH]2)c1	u
CCOC(=O)c1c(C)[nH]c(C)c1S(=O)(=O)N1CCC(C(=O)N2CCN(c3cc(C)ccc3C)CC2)CC1	-0.3%
O=C(CSc1nc(=O)[nH]c2c1CCCC2)Nc1ccc(Cl)c(Cl)c1	-8.2%
Cc1ccc(C(=O)COC(=O)C(Cc2c[nH]c3ccccc23)NC(=O)c2ccc(Br)cc2)cc1 (stereo unspecified)	3.5%
CCOC(=O)c1ccc(N2C(=O)c3n[nH]c(-c4ccco4)c3C2c2ccc(C)cc2)cc1 (stereo unspecified)	-12%
CCOc1cccc2cc(-c3nc4sc(C(=O)Nc5ccc(C)cc5)c(C)c4c(=O)[nH]3)c(=O)oc12	0.2%
CCOc1ccc(N2CC(NC(=O)C(=O)c3c[nH]c4ccccc34)CC2=O)cc1 (stereo unspecified)	-1.3%
COc1ccc(Cl)cc1NS(=O)(=O)c1ccc2[nH]c3c(c2c1)CCCC3	-7.3%
COc1cc(C2CC(=O)c3c([nH]c(C(=O)OCc4ccc(C)cc4)c3C)C2)cc(OC)c1OC (stereo unspecified)	-1.2%
CC(NC(=O)CSc1n[nH]c(-c2ccccc2Cl)n1)c1nc2ccccc2[nH]1 (stereo unspecified)	-1.8%
